Source: PubChem (several laboratories)
BJeLR viability: MLPCN primary cell-based screen for lethality selective to Ras in HRASV12 cells | actives 0.17% (n = 300,000) | BJeLR (HRASV12) viability, CellTiter-Glo ATP luminescence, 48 h; reference of the scale not given here | inhibition, % (no concentration beside the values);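 active = replicate mean above 50%; inconclusive = above 50% but judged a plate artefact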;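 also: 50 nL library stock added to about 25 µL; numbers are from one replicate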
Mtb hypoxia inh: PubChem AID 1159583; actives 0.1% (n = 300,000); fluorescence inhibition, % (concentration not given with the values); M. tuberculosis hypoxia-regulated fluorescent reporter, fluorescence;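 active = 35 to 45% if threefold the growth effect, above 45% if 1.5-fold the growth effect; inactive = the rest, general growth blockers included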;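 also: wells of about 50 µL received 100 nL stock; 0% = vehicle wells and 100% = reference inhibitor wells; whole bacteria with a GFP reporter of the hypoxia response; strong numbers were not always called active; many hits fall short of the cut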
Autofluor counter: flagged as autofluorescent in microsphere protease counterscreen | compound autofluorescence counterscreen, microsphere flow cytometry; stronger effect = higher value | fluorescence intensity (concentration not given with the values) | actives 3.1% (n = 360,000) | AID 624483;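 active = at least 3 SD above the mean of all compounds, about 16000 in these data; inconclusive = too few beads counted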;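 also: 100 nL of 1 mM stock went into each well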
ugtP null kill: growth inhibition of ugtP-null S. aureus, primary screen, RN4220 ugtP deletion, OD600; growth inhibition, % (no concentration beside the values); actives 0.54% (n = 330,000); AID 1259309, 2017; 16 h; some inactives read as strong as hits;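 active = z-score under -3 and OD600 up to 0.15 on both plates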;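 also: plate controls were untreated wells for no effect and antibiotic for full effect; wells of about 80 µL received 100 nL stock; the first replicate is given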
PrP UTR inh: inhibition of PrP 5' UTR reporter expression; actives 0.35% (n = 340,000); cell-based PrP 5' UTR mRNA reporter, plate reader; inhibition, % (test concentration not listed);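 active = every replicate at 50% or more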;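 also: 0 = median of the neutral control wells; tested in H4 reporter cells; numbers are from one replicate; inactives centre near -14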
Sa RN4220 lethal: growth inhibition of S. aureus RN4220, primary screen, OD600; 16 h; inhibition, % (concentration not given with the values); actives 0.33% (n = 330,000);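 active = z-score of -3 or lower and OD600 up to 0.18 on both plates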;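 also: plate controls were untreated cells for no effect and reference antibiotic for full effect; stock transfer was 100 nL into about 80 µL; one replicate is shown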
Mtb hypoxia inh growth: further read-out of Mtb hypoxia inh, marked with its call; growth inhibition, %; measured here: M. tuberculosis growth (absorbance);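 0% = vehicle and 100% = reference antibiotic; read after six days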
Starred values were filed as active, the others as inactive; ? = inconclusive; . = no result given.

SMILES | BJeLR viability | Mtb hypoxia inh | Mtb hypoxia inh growth | Autofluor counter | ugtP null kill | PrP UTR inh | Sa RN4220 lethal
O=C(c1ccccc1)N1CCN(c2nc3ccc([N+](=O)[O-])cc3s2)CC1 | 3 | 11 | 6 | 4274 | 2 | -10 | -2.2
CCC(CC)C(=O)N1N=C(c2ccc(NS(C)(=O)=O)cc2)CC1c1ccccc1 (stereo not drawn) | -8 | 7 | -1 | 5352 | 1 | -13 | 3.7
O=C1CC(C(=O)Nc2cccc(F)c2)n2c(nc3ccccc32)N1 (stereo not drawn) | 3 | 9 | -4 | 4415 | 5 | -14 | 1.1
CCCOC(=O)c1c(-c2ccc(OC)cc2)oc2ccc(-c3ccc(OC)nc3)cc12 | -6 | . | . | 3231 | . | -2 | .
COc1ccc(C(=O)c2c[nH]c(C(=O)N=CN(C)C)c2)cc1 | 12 | -3 | 1 | 4933 | 7 | -19 | 5.8
O=C(Nc1ccc(N2CCCC2=O)cc1)c1cncc(Br)c1 | 9 | -1 | 3 | 5784 | 3 | 5 | 0.0
Clc1ccc(Cc2ccc(Cl)nn2)c(Cl)c1 | -8 | 16 | 17 | 23303* | 1 | -25 | 5.0
O=C(CCCc1cccs1)Nc1ccc2c(c1)OCO2 | -4 | 11 | 5 | 4418 | -2 | -103 | 5.8
COc1ccc(NC(=O)[C@H](COCc2ccccc2)NC(=O)OC(C)(C)C)cc1 | -13 | 16 | 8 | 9750 | 8 | -22 | 4.5
CC1CCCN(C(=O)c2ccc(Br)c(S(=O)(=O)N3CCOCC3)c2)C1 (stereo not drawn) | . | 6 | 2 | 8017 | -3 | -7 | 2.4
Cc1ccc(OCCN2C(=O)c3ccccc3C2=O)cc1 | -1 | 4 | 9 | 22823* | 3 | -35 | 1.5
O=C1CC2(CCCCC2)Oc2ccc(Cl)cc21 | 4 | 4 | 4 | 2953 | 4 | 4 | 1.0
Cc1ccc(CSCCC(=O)NCCc2ccc(Cl)cc2)cc1 | -14 | 5 | 17 | 2662 | -7 | -29 | 3.3
COC(=O)C(C(=O)Nc1cc(C)on1)C1CCCCCC1 (stereo not drawn) | 0 | . | . | 2493 | -3 | -8 | 0.4
O=C(Nc1ccccc1Oc1ccccc1)c1cccc([N+](=O)[O-])c1 | -6 | 6 | 4 | 20430* | -13 | -12 | 6.0
Clc1ccc(CN2CCN(/N=C/c3ccco3)CC2)cc1 | -1 | . | . | 4566 | . | -15 | .
COC(=O)CN1C(=O)COc2ccc(S(=O)(=O)NCc3ccc(Cl)cc3)cc21 | -9 | 1 | -1 | 4327 | 5 | -19 | 5.6
O=C(CNc1ccccc1)N/N=C/c1cc([N+](=O)[O-])ccc1N1CCCC1 | -1 | . | . | 3369 | . | -22 | .
CN1CCN(C(=O)c2ccc(S(=O)(=O)Nc3ccccc3)cc2)CC1 | . | 3 | 3 | 7959 | 1 | -44 | 2.1
Cc1ccc(C(CNC(=O)C(=O)Nc2ccc3c(c2)OCCO3)N2CCN(C)CC2)cc1 (stereo not drawn) | 4 | 7 | 0 | . | 2 | -2 | 0.5
COc1ccc(NC(=O)CSc2n[nH]c(=O)n2C2CC2)cc1OC | . | 6 | -1 | 6539 | 5 | -21 | 1.0
C=C(C(=O)c1ccccc1)C(CC(=O)c1ccccc1)c1ccccc1 (stereo not drawn) | 10 | 2 | 9 | 2282 | 26 | -5 | 7.2
CCOC(=O)N1CCC(NC(=O)CS(=O)Cc2nc(-c3ccc(OC)c(OC)c3)oc2C)CC1 (stereo not drawn) | -5 | 8 | 9 | 9004 | -7 | -38 | 4.7
O=C(NCc1ccco1)c1cnn2c(C(F)F)cc(-c3ccccc3)nc12 | 7 | 6 | -6 | 2276 | 15 | 2 | 19
CCCCCC(=O)Nc1ccc(N2CCN(C(=O)c3ccccc3)CC2)cc1 | -11 | . | . | 4438 | -6 | -36 | 0.2
COc1ccc(S(=O)(=O)N(C)c2ccc(C(=O)N3CCC(C(N)=O)CC3)cc2)cc1OC | 1 | 6 | 11 | 4458 | -4 | -28 | 5.2
CCOc1ccc(S(=O)(=O)NCCC(=O)OCC(=O)c2ccc(NC(C)=O)cc2)cc1 | -3 | 10 | -4 | . | 5 | -7 | 3.1
COc1ccc(CN2CCC(=O)N([C@H](CO)CC(C)C)CC2)cc1OC | 12 | . | . | 3863 | . | -2 | .
c1ccc2oc(SCc3nc4ccccc4s3)nc2c1 | 4 | 7 | 9 | 3301 | -2 | -71 | 6.7
CC(Sc1nncs1)C(=O)Nc1ccc2c(c1)OCCO2 (stereo not drawn) | -5 | -6 | -8 | 4404 | 11 | -11 | 5.5
Cc1cccc(C(=O)Nc2ccc(C(=O)Nc3ccc(O)cc3)cc2)c1 | -8 | 4 | 4 | 6294 | -4 | 1 | 2.5
CCSc1ccccc1-c1nc(-c2ccncc2)no1 | -12 | 3 | -5 | 3714 | 7 | -27 | 8.9
Cc1nc2ccc(S(=O)(=O)N(C)CC(=O)N3CCc4ccccc43)cc2s1 | -1 | 0 | -2 | 2700 | 0 | -10 | 2.7
O=C(Cn1cnc2c(nnn2-c2cccc(Cl)c2)c1=O)N1CCOCC1 | -4 | 7 | 2 | 4239 | -3 | -14 | -4.9
Cc1cccc(NC(=O)c2ccc(C3SCC(=O)N3CCc3ccccc3)cc2)c1C (stereo not drawn) | 6 | 14 | 7 | 4330 | -21 | -1 | -0.8
O=C(NCc1ccc(Cl)cc1)N1CCOCC1 | 5 | 9 | 11 | 3596 | 13 | 2 | -0.8
COc1cccc2c(SCC(=O)NN=Cc3ccccc3)cc(C)nc12 | . | 9 | -1 | . | 1 | . | 7.6
CCCNc1c(NC(=O)C2CCC(C)CC2)c(=O)oc2ccccc12 (stereo not drawn) | -14 | -7 | -8 | 5421 | 5 | 5 | 2.6
Cn1cnnc1SCC(=O)NCc1ccccc1 | -18 | -8 | 3 | 4187 | 2 | -19 | 2.5
COc1ccc(-c2noc(CCC(=O)N3CCN(c4ccc(F)cc4)CC3)n2)cc1 | . | -10 | -4 | 2962 | -2 | 7 | -4.4

Whole records, looked up by structure. Order of screens: BJeLR viability	Mtb hypoxia inh	Mtb hypoxia inh growth	Autofluor counter	ugtP null kill	PrP UTR inh	Sa RN4220 lethal
Cc1cccc(NC(=O)c2ccc(C3SCC(=O)N3CCc3ccccc3)cc2)c1C (stereo not drawn) reads 6	14	7	4330	-21	-1	-0.8
CCOC(=O)N1CCC(NC(=O)CS(=O)Cc2nc(-c3ccc(OC)c(OC)c3)oc2C)CC1 (stereo not drawn) reads -5	8	9	9004	-7	-38	4.7
O=C1CC2(CCCCC2)Oc2ccc(Cl)cc21 reads 4	4	4	2953	4	4	1.0
CC1CCCN(C(=O)c2ccc(Br)c(S(=O)(=O)N3CCOCC3)c2)C1 (stereo not drawn) reads .	6	2	8017	-3	-7	2.4
O=C(Nc1ccc(N2CCCC2=O)cc1)c1cncc(Br)c1 reads 9	-1	3	5784	3	5	0.0

Next compounds follow:
SMILES | BJeLR viability | Mtb hypoxia inh | Mtb hypoxia inh growth | Autofluor counter | ugtP null kill | PrP UTR inh | Sa RN4220 lethal
O=C(c1ccc(OC2CCN(CCc3ccccc3)CC2)cc1)N1CCCC(CO)C1 (stereo not drawn) | -1 | 5 | 4 | 4800 | -6 | 1 | 2.2
O=[N+]([O-])c1cc(/C=N/N/C(=N/c2ccccn2)c2ccccn2)ccc1O | -2 | . | . | 4004 | . | -43 | .
COCCCNC(=S)NCCNc1nc2cc(C)cc(C)c2cc1C#N | -9 | -2 | 9 | 4372 | 0 | -73 | 4.9
CCCC(=NNC(=O)C1CC1)c1ccc(Br)cc1 | . | -3 | 0 | . | 3 | . | 0.6
CCOC(=O)c1nn(-c2ccc(OCC)cc2)c2nc(-c3ccco3)c(C#N)c(=O)n12 | 5 | 1 | 12 | 10126 | -1 | 7 | 2.6
OCc1nc2nc(Cl)c(Cl)nc2[nH]1 | -5 | -7 | -10 | 3892 | 4 | 11 | 4.0
Cc1ccc2[nH]c(=O)c3cc(C(=O)N(C)c4ccccc4C)sc3c2c1 | 6 | 8 | 2 | 4745 | -3 | -5 | 7.6
CNc1ncnc2sc(-c3ccccc3)cc12 | 1 | -1 | 7 | 5100 | 2 | -8 | -23
NNC(=O)C(=O)NCCCN1CCOCC1 | 6 | 15 | 12 | 3294 | 10 | -10 | 7.4
COc1ccc(CNC(=O)[C@H](Cc2c[nH]c3ccccc23)NC(C)=O)cc1OC | -1 | -10 | 11 | 4053 | -1 | -16 | 4.8
Clc1ccc(Cl)c(-c2ccc(C=Nc3ncn[nH]3)o2)c1 | . | 11 | 17 | . | 5 | . | 1.6
COc1ccc(NC(=O)CS(=O)c2ccc(F)cc2)cc1 (stereo not drawn) | 6 | 1 | -4 | 8756 | 0 | -11 | 2.3
Cc1ccccc1OC(C)C(=O)NCc1cccnc1 (stereo not drawn) | 3 | 8 | 7 | 4528 | 6 | -26 | 14
Cc1ccc(S(=O)(=O)N=CN(C)C)cc1 | . | 2 | 6 | . | 12 | . | 6.3
ClCCCc1cn(C[C@H]2CC[C@@H]([C@@H]3CC[C@H](Cn4cc(CCCCl)nn4)O3)O2)nn1 | -5 | . | . | 2909 | . | 68* | .
O=C(CCc1ccccc1)NNc1cc(N2CCCCC2)nc(N2CCCCC2)n1 | -5 | -4 | 5 | 3536 | 1 | 0 | 22
COc1ccccc1CCNC(=O)Cn1c(=O)oc2ccccc21 | -6 | 3 | -1 | 5864 | 1 | -5 | 4.0
NC(=O)NN=C1CCS(=O)(=O)c2ccc(F)cc21 | . | 11 | 1 | . | -2 | . | 0.4
O=C(CCN1C(=O)C2C3CCC(C3)C2C1=O)Nc1ccc([N+](=O)[O-])cc1 (stereo not drawn) | -14 | 4 | 15 | 2605 | -2 | -22 | -3.2
CCOc1ccc(CSC2=NCCN2)cc1[N+](=O)[O-] | 7 | -2 | -10 | 2082 | 6 | -11 | -0.3
S=c1[nH]nc(COc2ccccc2)n1/N=C/C(Cl)=C/c1ccccc1 | -2 | . | . | 5930 | . | -55 | .
CCN(CC(=O)NCc1ccc(Cl)cc1)C(=O)COc1ccc(Cl)cc1Br | 2 | 7 | -7 | 4595 | -8 | -16 | 3.2
COc1ccc(NC(=O)CSc2nc3ccccc3nc2N2CCCC2)cc1 | -8 | -2 | 2 | 5339 | -8 | -1 | 9.0
Cc1ccc2[nH]c(=O)c(C3C(C#N)=C(N)Oc4c3ccc3cccnc43)cc2c1 (stereo not drawn) | -1 | 0 | 7 | ? | -14 | -15 | 7.9
O=C(/C=C1\C(=O)Nc2ccccc21)/C=C1\C(=O)Nc2ccccc21 | . | 1 | -3 | 3148 | -2 | -8 | 15
CS(=O)(=O)N(CC(=O)O)c1ccc(Oc2ccccc2)cc1 | -9 | 7 | 5 | 20680* | 5 | -9 | 3.6
O=C(Nc1ccccc1Cl)c1ccc(=O)[nH]n1 | 3 | 0 | 0 | 3985 | 6 | -13 | -1.1
CCN(CC(=O)Nc1ccc2c(c1)CCC2)Cc1nc2ccccc2c(=O)[nH]1 | -7 | -5 | -2 | 3290 | 5 | -8 | 7.0
COc1ccc(NC(=O)CCn2c(=S)[nH]c3ccccc3c2=O)cc1OC | 8 | 2 | -3 | 5635 | 2 | -10 | 3.6
CC(C)C(NC(=O)c1c(F)cccc1F)C(=O)NCc1ccncc1 (stereo not drawn) | . | 8 | 7 | ? | 3 | 0 | -0.6
CC(=O)Nc1ccc(OCC(O)Cn2c(C)nc3ccccc32)cc1 (stereo not drawn) | 1 | . | . | 3560 | 10 | 0 | 2.7
Cc1ccc(S(=O)(=O)N2CCCCC2)cc1NC(=O)COC(=O)c1ccc(=O)[nH]c1 | . | 3 | 5 | ? | 10 | . | 4.1
CCn1c2ccccc2c2cc(NC(=O)Nc3ccc([N+](=O)[O-])cc3C)ccc21 | . | 9 | -2 | . | -14 | . | -1.6
Cc1nc(NCC2CCCO2)nc2c1C(=O)CC(C)(C)C2 (stereo not drawn) | 3 | -2 | 0 | ? | -3 | -3 | -2.5
Cc1ccc(SCC(=O)Nc2cccc(S(=O)(=O)N3CCOCC3)c2)cc1C | . | 6 | 8 | 5305 | 2 | -15 | -0.4
O=C(c1ccc(Cl)cc1)C1CCCN(Cc2ccon2)C1 (stereo not drawn) | -3 | 16 | 15 | 2498 | 6 | -25 | 3.1
